CDC25B-CDK2 inh = human CDC25B-CDK2/CyclinA binding inhibition | P30305+P24941 | HTRF CDC25B-CDK2/CyclinA binding, anti-His/anti-Flag; active compounds read high | z-score (test concentration not listed) | hit rate 0.72% among 94,000 | AID 1259370;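 further: score is relative to mean and SD of negative controls; strong numbers were not always called active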
HIV TAR-Tat = HIV-1 TAR-Tat binding disruption. HIV-1 TAR RNA, Tat peptide displacement FRET; active compounds read high. z-score (no concentration beside the values). hit rate 0.6% among 100,000. AID 1259389;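 further: score is relative to mean and SD of negative controls; some compounds called inactive have numbers as strong as hits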
* = called active by the depositor; nt = not tested or not shown.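 How the source made its calls: active means z-score from 3 up in half or more of its runs; inactive means the rest.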

Compound,CDC25B-CDK2 inh,HIV TAR-Tat
Cc1[nH]nc2c1C(c1cccc(Br)c1)C1=C(CC(C)(C)CC1=O)N2 (configuration not stated),-0.03,nt
O=C(OCc1cc(=O)n2c3c(sc2n1)CCCC3)c1ccccc1,nt,0.92
O=c1c2ccccc2n2c(-c3cccs3)nnc2n1CCc1ccccc1,-0.48,1.4
O=C(CC1(CC2=NS(=O)(=O)c3ccccc3N2)CCCC1)NCc1ccccc1,nt,-1.6
O=C1c2cccc3c([N+](=O)[O-])ccc(c23)C(=O)N1Cc1cccnc1,-2.9,nt
N#C/C(=C\c1cccnc1)c1cccc(C(F)(F)F)c1,-1.4,nt
O=C1CC(Nc2ccc(O)cc2)C(=O)N1c1ccccc1 (configuration not stated),-4,0.59
CCc1ccc(Oc2c(C(F)(F)F)oc3c(CN4CCOCC4)c(O)ccc3c2=O)cc1,1.1,0.41
Cc1cc(F)ccc1S(=O)(=O)NCC1CC2CCC1C2 (configuration not stated),0.57,1.8
COc1ccccc1-c1nc(Cc2ccc3c(c2)OCO3)c(=O)n(CCO)n1,nt,1.2
NC(N)=N/C(N)=N/c1nccs1,-1.5,nt
Cc1oc(-c2ccccc2Cl)nc1Cn1cnc2onc(-c3ccc(Cl)cc3)c2c1=O,nt,1.5
COc1ccc(S(=O)(=O)NCCO)cc1C(=O)O,-1.2,0.53
COc1ccc(N2CCN(S(=O)(=O)c3c(C)noc3/C=C/N3CCOCC3)CC2)cc1,nt,1.1
CCOC(=O)C1CCN(C(=O)CCC2=NS(=O)(=O)c3ccccc3N2)CC1,nt,0.96
O=C(NC1CCN(Cc2ccccc2)CC1)c1ccc(-n2cccn2)cc1,-2,nt
CCN(CC)CCOC(=O)c1cnn2c(C(F)(F)F)cc(-c3cccs3)nc12,1.6,0.16
COc1cc(C2OC(c3cc(C)ccc3[N+](=O)[O-])=NN2C(C)=O)cc(OC)c1OC (configuration not stated),-0.22,nt
N#Cc1cc2c(nc1SCC(=O)Nc1ccc(Br)cc1)CCCC2=O,-1.6,2.2
CC1(C)CC(=O)C2=C(C1)OC1=C(C(=O)CC(C)(C)C1)C2c1cn[nH]c1-c1ccccc1,-1.2,nt
Cc1ccc(CNc2c(-c3ccc(Cl)cc3)c(=O)c2=O)o1,nt,-0.07
COc1cc(CO)c(-c2c[nH][nH]c2=O)cc1OC,-2.6,nt
CC(C)Cc1nc2n[nH]c(N)c2c2c1COC(C)(C)C2,-0.11,1
CC(=O)Nc1nnc(-c2c(-c3c(Cl)cccc3Cl)noc2C)o1,-0.98,nt
COCCCNc1nc(Nc2cccc(Cl)c2)c2cnn(C)c2n1,nt,1.2
COc1ccc(NS(=O)(=O)c2cc(Br)cnc2N)cc1OC,-1.5,2
COc1ccc(CN2COc3ccc4c(oc(=O)c5ccccc54)c3C2)cc1,-0.67,-1.6
CCOC(=O)C1=C(C)NC(=O)c2c(ccc(OC)c2OC)C1O (configuration not stated),0.03,1.4
COc1ccc(NC(C)=O)c(NC(=O)c2ccc(Cl)cc2Cl)c1,-0.58,nt
CCCN(CCC)C(=S)NC(=O)c1cccc([N+](=O)[O-])c1,1.2,nt
NC(=O)c1sccc1NC(=O)C(F)(F)F,-1.4,nt
COc1ccc(S(=O)(=O)NCC(c2ccco2)N2CCOCC2)cc1 (configuration not stated),nt,1.7
Cc1ccc2c(c1)sc1nc(C)c(S(=O)(=O)Nc3ccc(F)c(Cl)c3)c(=O)n12,nt,0.94
Cc1ccc(S(=O)(=O)CCN(CCS(=O)(=O)c2ccc(C)cc2)c2ncccn2)cc1,-1.5,nt
CS(=O)(=O)N1CCN(Cc2ccncc2)CC1,-1.1,nt
COc1ccc(N2CCCS2(=O)=O)cc1NS(=O)(=O)c1cc(C)ccc1C,nt,1.6
Cc1nn(C(C)C(=O)NC2CCCCC2C)c(=O)c2cc3sccc3n12 (configuration not stated),0.13,0.71
CCCc1nn2c(=O)cc(CSc3ccccc3NC(=O)CC)nc2s1,nt,-2
O=C(NNc1cccc(Cl)c1)C1CCCCC1,-1.7,nt
Cn1cnc2c(=O)oc3ccc(S(=O)(=O)NCc4ccccc4)cc3c21,0.5,0.9
Cn1c(C(=O)NC2CCCC2)cc2sc(Cl)cc21,1.4,nt
Cc1onc(-c2ccccc2)c1C(=O)O,-1.2,-0.31
CCOC(=O)Cn1c(N2CCCCC2)nc2c1c(=O)[nH]c(=O)n2C,-1,-0.3
Oc1[nH]c2ccccc2c1N=Nc1nc(-c2ccccc2)c2cc(Cl)ccc2n1,-3.1,nt
COc1ccc(C2=NN(C(=O)CCCC(=O)O)C(c3ccc(F)cc3)C2)cc1OC (configuration not stated),-0.31,2.2

Further entries follow:
SMILES	CDC25B-CDK2 inh	HIV TAR-Tat
CCOC(=O)c1ccc(Oc2nc(C)nc3sc(C)c(C)c23)cc1	nt	0.38
O=C(CCN1C(=O)/C(=C\c2cccs2)SC1=S)NNC(=O)CCN1C(=O)/C(=C\c2cccs2)SC1=S	-4.4	nt
COc1ccc(-c2c(C#N)c(N)nc(OC)c2C#N)cc1	0.28	nt
Cc1oc2ncn3nc(-c4ccc(F)cc4)nc3c2c1C	nt	0.58
Cc1cc(C(=O)Nc2ccccn2)no1	nt	0.25
CCc1ccc(-n2c(C)nnc2SCc2nc(-c3ccc(OC)c(OC)c3)no2)cc1	-0.89	1.2
CCn1ncc(C2=NOC(C(=O)N3CCN(c4ccccc4)CC3)C2)c1C (configuration not stated)	-1.3	2.4
COc1cc(OC)c(NC(=O)C2CCN(c3ncnc4c3nc3n4CCCCC3)CC2)cc1Cl	nt	-0.68
CC(=O)CSc1nnc(-c2ccccc2)n1-c1ccccc1	-1.4	nt
O=C(Nc1ccc(O)cc1)C1Cc2ccccc2CN1S(=O)(=O)c1cccs1 (configuration not stated)	-2	nt
CN1CCN(C(=O)CCCn2c(=O)[nH]c3cc(Cl)ccc3c2=O)CC1	-0.55	nt
Cc1sc2c(c1C)CSC(C(=O)N1CCN(c3ccccc3)CC1)=C2	nt	-2.9
O=C(CCC(=O)N1CCSc2ccccc21)NCc1ccco1	nt	0.97
Cc1cc(C)nc(SCCCn2c(N3CCC(C)CC3)nc3c2c(=O)[nH]c(=O)n3C)n1	-0.95	2.3
CCN(CC)CCNc1ncnc2onc(-c3cccc(Cl)c3)c12	nt	0.25
O=S(=O)(c1ccc(-c2noc(COc3ccccc3)n2)cc1)N1CCCCC1	nt	2.9
CCN1CCN(C(=O)c2[nH]nc3c2COc2ccccc2-3)CC1	nt	1.3
Nc1ccc(-c2nc3ccccc3o2)cc1Cl	-0.5	2
CC1CCCC(NC(=O)C2CCN(S(=O)(=O)c3ccc4c(c3)CCC(=O)N4)CC2)C1C (configuration not stated)	0.29	0.14
CCOc1ccc(-n2c(CSc3ncccn3)nnc2SCC(=O)OC)cc1	-1.9	2.4
CCOC(=O)CN1C(C)=Nc2ccc(Br)cc2C1c1ccccc1 (configuration not stated)	-1.1	-0.37
COc1ccc(OC)c(NC(=O)CSc2ccc(-c3cccs3)nn2)c1	nt	1.9
COc1ccc(-c2noc(CSc3nnc(-c4ccncc4)n3-c3ccc(C)c(C)c3)n2)cc1	1.3	1.7
Cc1cc(C)n(Cc2ccc(C(=O)N3CCN(c4c(C)n(C)c(=O)n(C)c4=O)CC3)o2)n1	nt	0.61
Cc1ccc(S(=O)(=O)Nc2ccc(Cl)c(N3CCCS3(=O)=O)c2)cc1	nt	-0.3
CCN(CC)CCNc1nc2c(c(=O)n(C)c(=O)n2C)n1C	2.4	nt
O=C(Cn1c(=O)c(C(F)(F)F)nc2ccccc21)N1CCN(C2CCCCC2)CC1	0.22	nt
CC1CCN(S(=O)(=O)c2cn(CC(=O)Nc3nccs3)cn2)CC1	nt	0.31
COC(=O)c1ccc(CSc2nn3c(=O)c(C)nnc3s2)o1	nt	1.1
CC1=C(C(=O)OC2CCCC2)C(c2ccc(Br)cc2)C2=C(CC(C)(C)CC2=O)N1 (configuration not stated)	-1.3	0.79
Cc1nn(-c2ccccc2)c2nc3nc(-c4ccc([N+](=O)[O-])cc4)[nH]c(=O)c3cc12	-1.3	nt
CCOC(=O)CN1C(=O)C2(C(C#N)=C(N)OC3=C2C(=O)CC(C)(C)C3)c2ccccc21 (configuration not stated)	-1.2	nt
COc1ccc(NC2=NC(C)(CO)CS2)cc1 (configuration not stated)	-0.72	nt
c1cncc(-c2nc3c4ccccc4nc(NC4CC4)n3n2)c1	-0.25	0.22
Cc1cc(-c2ccc(C(C)C)c(S(=O)(=O)N3c4ccccc4CC3C)c2)on1 (configuration not stated)	nt	-0.03
CC(C)(C)c1ccc(-c2nnc3n2N=C(c2ccccc2O)CS3)cc1	-0.41	0.38
CC(C)c1ccc(C2c3c(-c4ccc(F)cc4)n[nH]c(=O)c3Nc3nnnn32)cc1 (configuration not stated)	-1.7	-0.58
Cc1ccc(C)c(N2CCN(c3cc(C(=O)O)c4cc(N)ccc4n3)CC2)c1	nt	-5
O=S(=O)(NCc1ccccc1Cl)c1ccc(N2CCCCS2(=O)=O)cc1	nt	1.1
O=C(NCC(c1cccs1)S(=O)(=O)c1ccc(Cl)cc1)C(=O)NC1CCCC1 (configuration not stated)	nt	0.68
CCc1nnc(NC(=O)c2ccc(CN3C(=O)C(C)=C(c4ccc(C)c(C)c4)S3(=O)=O)cc2)s1	nt	-0.47
CCOC(=O)c1cc(-c2ccc(S(=O)(=O)NC3CCCC3)s2)on1	nt	-0.89
Oc1ccc(Nc2nc(N3CCOCC3)c3ccccc3n2)cc1	-1	-1.2
COc1cc(C2C(C#N)=C(N)OC3=C2C(=O)CC(C)(C)C3)ccc1OC(=O)c1cccs1 (configuration not stated)	0.22	nt
COc1ccc(-n2c(C)c3c(C)nn4cc(-c5ccc(C)o5)cc4c3c2C)cc1	7.2*	16*
COc1ccc(NC2CC(=O)N(c3ccccc3Cl)C2=O)cc1 (configuration not stated)	-0.65	0.37
COc1ccccc1CNc1c(-c2ccc(Cl)cc2)nc2ncccn12	nt	-0.03
O=C(O)C[C@H](O)C[C@H](O)/C=C/c1c(C2CC2)nc2ccccc2c1-c1ccc(F)cc1	nt	1.2
Cc1ccc2c(c1)C(=O)OC(C(=O)Nc1cc(C)on1)C2 (configuration not stated)	-1.2	2.1
COc1ccc(Nc2nc(NCc3ccco3)nc3c2cnn3C)cc1	nt	0.41
COc1ccc(C2=NN3C(C2)c2cc(Cl)ccc2OC3(C)C)cc1 (configuration not stated)	-1.3	nt
Cc1cc(C)c(S(=O)(=O)NCc2cn3ccsc3n2)c(C)c1	-6	nt
COc1ccc2nc(SCC3=CC(C)(C)N(C(C)=O)c4ccccc43)nc(C)c2c1	-1.7	nt
CCc1cc(=O)n2[nH]c(NCc3cccs3)nc2n1	-2.4	-0.75
Cn1cccc1Cc1nnc(SCC(=O)NC2CCCCC2)n1-c1ccccc1	-1.5	-1.6
O=C(COc1ccc(F)cc1)Nc1c(C(=O)N2CCN(c3ncccn3)CC2)oc2ccccc12	nt	0.23
Cc1cc(=O)n2[nH]c(CNc3ccc(Cl)cc3)nc2n1	0.18	0.51
COCCNC(=O)c1cc2c(s1)-c1ccccc1SC2	-1.2	1.1
O=C(Cn1c(=O)oc2cc(S(=O)(=O)N3CCCCC3)ccc21)NC1CCCC1	-1.9	-1.6
FC(F)(F)C(=C(NC(=S)N1CCCCCC1)C(F)(F)C(F)(F)F)C(F)(F)F	5.7*	nt

(list continues)
SMILES	CDC25B-CDK2 inh	HIV TAR-Tat
COc1ccc(OC)c(CNC(=O)c2cc3cc4ccc(OC)cc4nc3o2)c1	-4	nt
COc1ccc(CCNc2oc(COc3ccccc3Cl)nc2C#N)cc1OC	-1.1	4.2
CN(CCNC(=O)c1ccc2c(=O)n3c(nc2c1)CCCC3)C1CCCCC1	nt	1
Cc1ccc(-n2c(SCc3cc(=O)n4ccccc4n3)nc3[nH]ncc3c2=O)cc1Cl	-7.7	nt
Cc1ccc(OCC(O)Cn2nc(C)cc2C)cc1 (configuration not stated)	-1.2	0.67
O=C(NCC1CCCO1)c1cc2cccc3c2n1CCS3 (configuration not stated)	nt	-0.71
CCOc1cccc2c1Oc1[nH]c(-c3ccc(C(=O)OC)cc3)nc(=S)c1C2	1.3	0.28
CCOc1cccc(C2C3=C(Nc4c2c(=O)[nH]c(=O)n4C)c2ccccc2C3=O)c1 (configuration not stated)	-0.28	0.51
COc1ccc(/C(O)=C2\C(=O)C(=O)N(CCN3CCNCC3)C2c2ccc(F)cc2)cc1 (configuration not stated)	-0.67	0.76

Quoted at random: two compounds from above, in no set order.
SMILES	CDC25B-CDK2 inh	HIV TAR-Tat
COc1ccc(OC)c(CNC(=O)c2cc3cc4ccc(OC)cc4nc3o2)c1	-4	nt
O=C(NCC1CCCO1)c1cc2cccc3c2n1CCS3 (configuration not stated)	nt	-0.71

2 of the compounds above, as labelled records.
> COc1ccc(OC)c(CNC(=O)c2cc3cc4ccc(OC)cc4nc3o2)c1
  CDC25B-CDK2 inh: -4
  HIV TAR-Tat: nt
> COc1ccc(CCNc2oc(COc3ccccc3Cl)nc2C#N)cc1OC
  CDC25B-CDK2 inh: -1.1
  HIV TAR-Tat: 4.2
